High-throughput results (PubChem BioAssay)
BasE inh: BasE siderophore enzyme inhibitors, primary screen, biochemical, Acinetobacter baumannii ATCC 17978, fluorescence polarization; purified BasE, fluorescence polarization binding displacement; inhibition, % (concentration not given with the values); 84,000 tested, 0.1% active; AID 485350, 2010;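 active means both replicates above 25% with normal brightness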;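 further: 0% = negative plate control signal and 100% = positive plate control signal; stock transfer was 100 nL into about 30 µL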
KSHV LANA nucl: inhibitors of KSHV LANA-nucleosome binding, primary screen, biochemical, fluorescence polarization, FITC-LANA1-23, chicken nucleosomes | FITC-LANA1-23 / chicken nucleosome fluorescence polarization; hits give low values | 51,000 tested, 0.3% active | AID 720717, 2013 | z-score (no concentration beside the values);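 active means both repeat wells score below -2 in polarization z-score versus plate sample wells, excluding overly bright wells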;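 further: 100 nL library stock added to about 30 µL; numbers are from one replicate; some results filed as inactive read as strong as hits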
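Test system: purified chicken nucleosomes with FITC-labelled LANA N-terminal peptide (1-23); Input: 240 nM purified chicken nucleosomes (480 nM peptide binding sites), final; Medium: TEN-BT buffer, pH 7.5; Timing: 10–45 min, room temperature; Technique: fluorescence polarization, 480 nm excitation, 535 nm parallel and perpendicular emission; Replication: duplicates.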
Active calls of the source: *; . = not tested or not shown. This is a subset (hit frequency here may not be typical).

SMILES	BasE inh	KSHV LANA nucl
COc1ccc(-c2nc3cc(N=Cc4ccccc4O)ccc3o2)cc1	-1.7	-0.18
CS(=O)(=O)c1ccc([C@@H](O)[C@@H](COC(=O)CN)NC(=O)C(Cl)Cl)cc1	.	0.6
CCN(CC)S(=O)(=O)c1cccc(C(=O)O)c1	-1.8	.
O=C(COC(=O)Cn1[nH]c(=O)c2ccccc2c1=O)Nc1ncc(Cl)cc1Cl	-3.2	.
NCCc1ccn[nH]1	-3.3	-0.46
FC(F)(F)c1ccnc(NCCNC(=S)NCc2ccco2)n1	-0.1	.
COc1ccc2[nH]cc(-c3csc(N)n3)c2c1	-8.5	0.46
O=C(CC1=NS(=O)(=O)c2ccccc2N1)NCc1ccc(F)cc1	7.7	-1.6
CS(=O)(=O)N(CC(=O)Nc1ccccc1)Cc1ccc(Cl)cc1	3.7	-0.92
COCC(=O)Nc1nc2nc(-c3ccccc3)cc(=O)n2[nH]1	2.2	-0.78
COCCCn1c(SCC(=O)N2CC(=O)Nc3ccccc32)nnc1-c1ccoc1C	0.5	-0.75
Cc1ccc2c(COC(=O)c3ccc(N(C)C)cc3)cc(=O)oc2c1	0.6	.
O=c1cc(-c2cccnc2)nc2cc(-c3ccco3)[nH]n12	21	0.67
Cc1cc(-n2cnc(-c3cn[nH]c3C)n2)no1	-0.5	1.5
Cc1c(NC(=O)Nc2ccccc2)sc2nc(-c3ccc(Cl)cc3)nn12	1.2	.

Filtered by structure: those above with nitrogen in an aromatic ring
SMILES	BasE inh	KSHV LANA nucl
COc1ccc(-c2nc3cc(N=Cc4ccccc4O)ccc3o2)cc1	-1.7	-0.18
O=C(COC(=O)Cn1[nH]c(=O)c2ccccc2c1=O)Nc1ncc(Cl)cc1Cl	-3.2	.
NCCc1ccn[nH]1	-3.3	-0.46
FC(F)(F)c1ccnc(NCCNC(=S)NCc2ccco2)n1	-0.1	.
COc1ccc2[nH]cc(-c3csc(N)n3)c2c1	-8.5	0.46
COCC(=O)Nc1nc2nc(-c3ccccc3)cc(=O)n2[nH]1	2.2	-0.78
COCCCn1c(SCC(=O)N2CC(=O)Nc3ccccc32)nnc1-c1ccoc1C	0.5	-0.75
O=c1cc(-c2cccnc2)nc2cc(-c3ccco3)[nH]n12	21	0.67
Cc1cc(-n2cnc(-c3cn[nH]c3C)n2)no1	-0.5	1.5
Cc1c(NC(=O)Nc2ccccc2)sc2nc(-c3ccc(Cl)cc3)nn12	1.2	.

A different layout for part of the listing above.
Results follow in this order: BasE inh, KSHV LANA nucl
CS(=O)(=O)N(CC(=O)Nc1ccccc1)Cc1ccc(Cl)cc1
→ 3.7, -0.92
COCC(=O)Nc1nc2nc(-c3ccccc3)cc(=O)n2[nH]1
→ 2.2, -0.78

The results go on:
SMILES	BasE inh	KSHV LANA nucl
CCOC(=O)c1ccccc1NC(=O)C12CC3CC(CC(C3)C1)C2	2.0	.
CN1/C(=C/C#N)Sc2ccccc21	-6.8	.
S=c1nc(-c2ccco2)n(Cc2ccccc2)c(=S)n1C(=NCc1ccccc1)c1ccco1	-1.8	.
N#CC1(N)CCCC1	0.9	.
NC(=O)c1ccccc1N	2.9	.
CS(=O)c1nc(-c2ccc(Br)cc2)cc(-c2ccccc2)c1C#N (stereo not given)	1.9	0.11
C/C(=C/c1ccccc1)C(=O)N1CCN(Cc2ccccc2)CC1	-4.0	2.1
FC(F)(F)c1ccnc(Sc2n[nH]c(C(F)(F)F)n2)c1	1.1	1.1
CC1(C)CC(=O)c2c(oc3ccc(NS(=O)(=O)c4ccc5ccccc5c4)cc23)C1	-0.6	.
Cc1cc(NC(=O)Nc2ccc(F)cc2)c(C(F)(F)F)o1	0.9	0.33
C=C(C)C(=O)Nc1ccc(Oc2ccccc2F)nc1	-0.6	.
CCc1cc(C(O)(C(F)(F)F)C(F)(F)F)c(O)c(C(O)(C(F)(F)F)C(F)(F)F)c1	-3.1	0.99
Cc1ccc(N2C(=O)C(N3C(=O)c4ccccc4C3=O)C2c2ccc3c(c2)OCO3)cc1 (stereo not given)	3.0	0.17
Nc1ccc2nc(C(F)(F)F)[nH]c2c1	0.9	-1.2
O=c1c2c3c(sc2ncn1Cc1ccccc1)CCC3	-4.2	.
CC(C(=O)O)N1CCCC1 (stereo not given)	-0.4	-0.62
Cn1c(O)c(/C=N/c2sc3c(c2C#N)CCC3)c(=O)n(C)c1=O	-0.5	.
Cc1cc(C)nc(NNS(=O)(=O)c2ccc(Cl)cc2)n1	1.7	.
Cc1[nH]n(-c2ccccc2)c(=O)c1C=Nc1ccc(S(=O)(=O)N=C(N)N)cc1	2.2	.
Cc1cc(-c2ccc(S(=O)(=O)NC3CCCc4ccccc43)cc2)on1 (stereo not given)	-0.2	-0.89
Cc1cccc(C)c1NCc1nnc(SCC(N)=O)n1-c1ccccc1	-1.0	-0.067
O=C(CCn1cccc1)Nc1ccccc1	1.7	-1.1
COc1cc(C(=O)N2CCCN(c3nc4cc(C)ccc4cc3C#N)CC2)cc(OC)c1OC	2.6	-0.74
Cc1ccc(S(N)(=O)=O)cc1C(=O)NCC(C)C	4.4	0.11
Nc1nc2ncc(C(=O)c3cc(F)ccc3O)cc2s1	-6.3	.
OC(CC#CCN1CCOCC1)(c1ccccc1)c1ccccc1	-0.6	-0.97
N#Cc1ccc(NC(=O)C(F)(F)F)cc1	-0.2	.
COc1ccc(C2CC(=O)NC(NC(=O)CCCOc3ccccc3)=N2)cc1 (stereo not given)	-9.5	-0.045
c1ccc(SCc2cn3cccnc3n2)cc1	-3.6	.
CCCc1ccc(OC(=O)c2cccs2)cc1	-0.2	-0.2
Cn1nc(C(=O)N2CCCC2c2nc3ccccc3s2)c2ccccc2c1=O (stereo not given)	-0.9	.
CCOC(=O)/C(C#N)=C\c1ccc(-c2cccc(C(F)(F)F)c2)o1	0.9	-0.44
CN(CCC#N)C(=O)C1CCN(S(=O)(=O)c2ccc(-n3cnnn3)cc2)CC1	-2.2	-0.31
O=C(c1ccccc1)N1N=C(c2ccccc2)CC1c1ccc2nccnc2c1 (stereo not given)	-0.5	.
CC(C)C(NC(=O)COc1ccccc1)C(C)C	1.9	-0.82
COC(=O)C1=CN(CCCN2CCCC2=O)C=C(C(=O)OC)C1c1cccc(F)c1	-1.4	1.3
On1c(-c2ccc(Cl)cc2)nc2ccc(Cl)cc21	.	-0.2
Clc1ccc(CO/N=C/c2cccs2)cc1	-0.9	-0.85
COC(=O)c1ccc(COC(=O)c2ccc(S(=O)(=O)N(C)c3ccccc3OC)cc2)o1	-4.8	.
Cc1cccc(N2CCN(C(=O)CCCCCn3c(=S)[nH]c4ccc(N5CCOCC5)cc4c3=O)CC2)c1C	1.5	0.46
CCOC(=O)CCc1c(C)nn(-c2ccc(N3CCCCC3)nn2)c1C	0.0	0.45
O=C(NCCC1=CCCCC1)c1cc2cccc3c2n1CCS3	0.6	-0.024
CNC(=O)c1cc(N2CCN(c3ccccc3)CC2)ccn1	0.5	.
Cc1ccc(OCC(=O)Nc2ccc(O)c(C(=O)O)c2)cc1	12	-1.1
Cc1ccc(Cn2nnc3c(=O)[nH]c(C4CCN(S(=O)(=O)c5ccccc5C#N)CC4)nc32)cc1	0.2	-0.25
Cc1cc(=O)oc2cc(OCC(=O)c3ccc4c(c3)NC(=O)CO4)ccc12	-0.9	.
CC(=O)OC1CCC(C(=O)O)CC1 (stereo not given)	1.8	.
CCc1ccc2oc(C(=O)NCc3ccncc3)cc(=O)c2c1	0.9	-1.1
COc1ccc2ccc(OC)c(/C=C3\NC(=S)N(C)C3=O)c2c1	0.9	.
Nc1nnc(SCC(=O)Nc2ccc(F)cc2)n1CC(=O)Nc1ccc(F)cc1	1.0	-1.4
C=C1Cn2c(nc3sc4c(c3c2=O)CCCC4)S1	1.1	-0.64
CN(C1CCCCC1)S(=O)(=O)c1ccccc1N=Cc1c(O)n(C)c(=O)n(C)c1=O	2.9	.
Cc1ccc2c(C)nc(Nc3nc(CSc4nnc(C)s4)cc(=O)[nH]3)nc2c1	-0.8	-0.11
N#CC(C#N)=CNCCc1ccc(Cl)cc1	1.0	-0.34
Cc1cc(C)nc(SCC(=O)NN=Cc2cccs2)n1	-1.6	-0.015
CC(O)CC12CC3CC(CC(C3)C1)C2 (stereo not given)	3.1	-0.14
CSC1=NCN(CCCO)CN1	1.1	.
CN1/C(=C\C=N\NC(N)=O)C(C)(C)c2ccccc21	-2.6	.
COc1ccc(-c2oc3ccccc3c(=O)c2O)cc1	2.0	.
O=C(Oc1ccc(Br)cc1)c1cccnc1N1CCCC1	3.0	.
Carrying on:
SMILES	BasE inh	KSHV LANA nucl
O=C(NCCO)c1cn(Cc2ccccc2)nc1-c1ccccc1	1.1	.
COc1ccc(N(C)C(=O)C2CCN(S(=O)(=O)c3cccc4nonc34)CC2)cc1	0.3	0.54
CCOC(=O)N1CCc2c(sc3ncn(C)c(=O)c23)C1	3.7	-0.47
COC(=O)CCn1ccc(C)n1	1.5	0.85
CCOC(=O)/C=C(C)/C=C/C=C(C)/C=C/c1c(C)cc(OC)c(C)c1C	.	0.82
CN(CC(=O)c1c(N)n(C)c(=O)n(C)c1=O)C1CCS(=O)(=O)C1 (stereo not given)	-0.9	.
O=C(Nc1cccc(C(=O)N2CCOCC2)c1)NC1CCCCC1	-0.7	0.0095
Cc1n[nH]c(=S)n1CC1CCCO1 (stereo not given)	-0.5	-0.12
CCCCn1c2c(c3ccccc31)CCc1nonc1-2	2.3	.
CNC(=O)NCCN1CCCC1=O	-1.8	1.4
COc1cc(C)nc(OCCNC(=O)COc2ccc(Cl)cc2C)n1	-2.9	-0.004
Brc1ccc(-n2nnnc2/C=C/N2CCCC2)cc1	.	-0.86
CCc1ccc(Nc2nnnn2-c2ccccc2)cc1	-0.4	.
COc1ccc(NC(=S)NCC(OC)OC)cc1	3.5	0.76
CCC(CC)NC(=O)c1ccc2nc[nH]c2c1	-0.2	.
CCOC(=O)c1cc(C(C)(C)C)n(-c2ccc(N3CCOCC3)cc2)c1C	1.6	.
CC(C)NC(=O)N1CCn2cccc2C1C (stereo not given)	-0.2	-0.22
CCOC(=O)c1ccc(NC(=O)C2OCCc3ccccc32)cc1 (stereo not given)	0.6	0.4
Cc1sc2nc(CSC(C)C(=O)N=c3sc4ccccc4n3C)[nH]c(=O)c2c1C (stereo not given)	-5.3	.
O=C(OC1CCOC1=O)c1ccc(S(=O)(=O)N2CCCC2)cc1 (stereo not given)	2.0	.
O=C(Nc1cccc(Cl)c1)Nc1ccccc1C(=O)N1CCCCC1	0.4	-0.32
CC(C)S(=O)(=O)c1csc(C(=O)NN)c1Cl	-1.8	.
CC(C)(C)c1ccc(NC(=O)CCC(=O)O)cc1	4.0	.
CCC(CC)C(=O)Nc1ccc(C)cc1C	1.7	0.59
COc1ccc(-n2[nH]c(C)c(C(C)=NCCN3CCOCC3)c2=O)cc1	-3.6	0.53
O=C(O)CCC(=O)Nc1ccncc1	0.8	-0.75
CCSc1nnc2c(n1)OC(c1cccc(OC)c1OCC(=O)O)Nc1ccc(Br)cc1-2 (stereo not given)	0.9	0.14
O=C1S/C(=C/c2ccccc2)C(=O)N1c1ccccc1	2.5	0.11
CCOC(=O)N1CCN(Cc2nc3c(c(=O)n(C)c(=O)n3C)n2CC)CC1	-0.6	-0.3
COc1ccc(-c2cc(C(F)F)n3ncc(C(=O)Nc4cc(C)on4)c3n2)cc1	1.4	-0.76
CCCN(CCC)Cc1cn2c(-c3ccc(OC)cc3)nnc2s1	-1.6	1.1
Cn1nc(NC(=O)C2CCC2C(=O)O)c2c(F)cccc21 (stereo not given)	0.7	.
CCCCCCSc1ncc(C#N)c(N)n1	2.8	0.82
O=C(NCc1ccc(S(=O)(=O)NCc2ccccc2)s1)c1ccccc1	1.7	.
Cc1ccc(NCCO)cc1	-1.1	0.072
O=C(CN1c2ccccc2S(=O)(=O)c2ccccc21)NCc1ccccc1	1.4	-0.69
Cc1ccc(NC(=O)CN(C)CC(=O)Nc2ccccc2C(=O)NC2CCCC2)cc1	-0.2	.
COc1ccc(NC(=O)c2cn3ccc(C)cc3n2)cc1	-0.5	0.5
COC(=O)c1ccc2nc[nH]c2c1	1.8	.
CCC(=O)N(Cc1cccnc1)Cc1cc2cc(OC)ccc2[nH]c1=O	0.1	0.21
Cc1ccc(S(=O)(=O)N2CCCC(n3cccc3)C2)cc1 (stereo not given)	.	-0.2
C=CCn1c(SCc2cc(=O)oc3cc(O)ccc23)nnc1-c1ccccc1OC	-1.4	.
COc1cc(C2SCC(C(=O)O)N2C(C)=O)cc(Br)c1O (stereo not given)	1.2	-0.98
Cc1nn(-c2ccccc2)c2c1CC(C#N)(C(=O)c1ccc(Cl)cc1)C1CCCN21 (stereo not given)	-0.8	.
CC(NC(=O)c1ccco1)C12CC3CC(CC(C3)C1)C2 (stereo not given)	2.2	.
CN1CCN(c2ccc(NC(=O)c3cccc(Cl)c3)cc2)CC1	1.7	0.19
O=C(ON=C(c1cccs1)c1cccs1)c1ccc(Cl)cc1	3.7	-0.18
NC(=O)c1oc2ccccc2c1NC(=O)c1ccccc1	-2.2	1.4
COc1ccc(OC)c(NC(=O)CSc2nnc(C3CCCCC3)o2)c1	0.2	-0.74
O=C1CSC2(CCCCC2)N1c1ccc(Cl)cc1	0.4	-0.042
O=C(CSc1oc(-c2ccco2)nc1S(=O)(=O)c1ccccc1)NCC1CCCO1 (stereo not given)	-4.6	0.63
Oc1c(C=NC2CCCCC2)[nH]c2ccc(Br)c(Cl)c12	-33	.
O=C(NN1CCOCC1)c1cccc2ccccc12	4.0	.
